VACV Venus inh = vaccinia inhibition (Venus reporter); Vaccinia virus Venus reporter expression, fluorescence; Potency, µM (titrated, usually from 36.5 µM), inactives show at the highest dose activity change, negative = inhibition, usual class: inhibitors; hit rate 0.46% among 330,000; AID 720580; active means well fitted inhibition curve with a large enough effect; inconclusive means small, poorly fitted or top-dose-only effect; inactive means no such curve, though single readings can be large or run the other way; tested in A549 cells; note: nearly all actives have a fitted effect of over 30% in size; inactives centre near -10
VACV mCherry inh = inhibitors of vaccinia virus infection (mCherry reporter signal). Potency, µM (titrated, usually from 36.5 µM), for the others: at the top dose activity change, negative = inhibition, most hits filed as inhibitors. hit rate 0.63% among 310,000. Vaccinia virus mCherry reporter infection, fluorescence; about a quarter of the inactives have no number; active = well fitted inhibition curve with a large enough effect; inconclusive = small, poorly fitted or top-dose-only effect; inactive = no such curve, though single readings can be large or run the other way; tested in A549 cells; note: nearly all actives have a fitted effect of over 35% in size; inactives centre near -10
The depositor's hits bear a star; i = inactive; u = inconclusive; x = no result given; & = joins results of further samples; [ ] = dose if it differs, or a comment. % is set by controls: 0 for no effect and ±100 for the full control effect; potency is the fitted concentration of half-maximal effect.

SMILES | VACV Venus inh | VACV mCherry inh
CC(Sc1n[nH]c(-c2ccccc2)n1)C(=O)c1c(N)n(C)c(=O)n(C)c1=O (stereo not given) | -13% | -3%
Clc1ccc(-c2nc3cnccn3c2Nc2ccc3c(c2)OCO3)cc1 | 3% | 4%
Cc1nc2cc3c(cc2c(C)c1C(=O)OC(C)C)OCO3 | -17% | -3%
C=CCNc1nc(-c2ccccc2)c(C(=O)OCC)cc1C#N | -26% | -18%
CC1(C)CCC[C@]2(C)[C@H]3Cc4cc(O)ccc4O[C@]3(C)CC[C@@H]12 | u | u
CCCN(CCC)S(=O)(=O)c1ccc(C(=O)Nc2c(C)n(C)n(-c3ccccc3)c2=O)cc1 | -3% | -29%
CC1CCc2c(sc3ncnc(SCC(=O)c4ccccc4)c23)C1 (stereo not given) | -6% | i
Cc1ccc(SC[C@H](c2ccccc2)N2CCN(C)CCC2=O)cc1 | -9% | -5%
CCC(=O)Oc1ccc(C(CC)C(CC)c2ccc(OC(=O)CC)cc2)cc1 (stereo not given) | -13% | -3%
COC(=O)c1cccc(Cn2c(Cl)c(/C=N/Nc3ccccc3C)sc2=O)c1 | -1% | -23%
CCOC(=O)c1cccc(S(=O)(=O)N2CCCC2)c1 | 3% | -13%
COc1ccc(-c2[nH]c(-c3cccc(OC)c3)nc2SCC(=O)NC2CCCC2)cc1 | 1%&-26% | 0%&3%
CN1C[C@@H]2[C@@H]3C(=O)N(C)C(=O)[C@@H]3[C@](Cc3ccccc3)(C1=O)N2C(=O)c1ccc(F)cc1 | 2% | i
Cc1ccc(C(=O)Nc2cccc(-c3cn4ccccc4n3)c2)cc1 | -11% | -10%
CC(=O)Nc1ccc(N(C(=O)Cn2nnc3ccccc32)C(C(=O)NCc2ccccc2)c2ccc(C)cc2)cc1 (stereo not given) | -5% | -5%
CC(C)CCN1CCN(Cc2cccn2-c2ccccn2)CC1CCO (stereo not given) | 10% | i
C=CCN1C(=O)/C(=C\C(C)=C\c2ccccc2)SC1=S | -21% | -27%
COc1cc(NC(=O)COc2cccc(C)c2C)ccc1NC(=O)c1ccco1 | -4% | 9%
COc1cccc(N2CCN(c3ncnc4onc(-c5ccc(F)cc5)c34)CC2)c1 | 3% | 1%
COCCOC(=O)C1=C(C)NC(=O)NC1c1ccc(-c2ccc(F)cc2)o1 (stereo not given) | 5% | i
COc1ccccc1S(=O)(=O)N1CCC(C(=O)O)(c2ccccc2)CC1 | -10% | -20%
CC(=O)c1ccc(S(=O)(=O)Oc2ccc(-c3ccc(C(=O)O)cc3)cc2)cc1 | 4% | -8%
COC(=O)CCN(C(C)=O)c1ccc(N)cc1 | -7% | i
COC(=O)c1ccc(Cn2nc([N+](=O)[O-])c(Br)c2C)cc1 | -3%[7.34 µM] | i[7.34 µM]
CCC(Sc1nc(N)cc(=O)[nH]1)C(=O)Nc1cc(C)on1 (stereo not given) | -16% | -15%
CCCc1nc(SCC(=O)c2ccc3c(c2)NC(=O)CO3)[nH]c(=O)c1CC | 1% | -9%
Cc1ccc(CNc2nc3ccccc3n2C)o1 | -11% | i
CO/N=C/C(=N\Nc1cc(OC)cc(OC)c1)C(=O)c1ccccc1 | -12% | i
COc1ccccc1NC(=O)C1=C(C)Nc2nc(SCc3ccccc3)nn2C1c1cccnc1 (stereo not given) | -4% | 0%
COc1ccc(S(=O)(=O)NC2CC(C)(C)NC(C)(C)C2)c2ccccc12 | -28% | -7%
CCN(CC)S(=O)(=O)c1ccc(F)c(C(=O)OC2CC(C)OC2=O)c1 (stereo not given) | -3% | -14%
Cc1ccc(NC(=O)c2ccc(Nc3c([N+](=O)[O-])cc([N+](=O)[O-])cc3[N+](=O)[O-])cc2)cc1 | u | -23%
CN(C)c1ccc(/C=N/NC(=O)c2ccccc2)cc1 | -21% | -10%
Nc1cc(=O)n(Cc2ccco2)c(=S)[nH]1 | -10% | -18%
Cc1ccc(NC(=O)Cn2nc(C)n3cccc3c2=O)c(C)c1 | -6%[7.34 µM] | -10%[7.34 µM]
CCOC(=O)c1ccc(NC(=O)Nc2ccc3snnc3c2)cc1 | 0% | -3%
COCCNC(=O)Cn1c(=O)n(-c2ccc(C)c(C)c2)c(=O)c2c3c(sc21)CCCCC3 | -9% | -3%
O=C(c1ccco1)N1CCN(c2ccc([N+](=O)[O-])c(N3CCOCC3)c2)CC1 | -6% | 1%
Cc1ccc2sc(N(Cc3cccnc3)C(=O)Cc3ccccc3)nc2c1C | -4% | -14%
CN(C)c1ccc(-c2ccnc3c2CC(C)(C(=O)NCc2ccco2)O3)cc1 (stereo not given) | -29% | u

14 of the compounds above, with values under each structure.
Every second line gives: VACV Venus inh	VACV mCherry inh
> COC(=O)c1cccc(Cn2c(Cl)c(/C=N/Nc3ccccc3C)sc2=O)c1
 : -1%	-23%
> CCOC(=O)c1cccc(S(=O)(=O)N2CCCC2)c1
 : 3%	-13%
> COc1ccc(-c2[nH]c(-c3cccc(OC)c3)nc2SCC(=O)NC2CCCC2)cc1
 : 1%&-26%	0%&3%
> CN1C[C@@H]2[C@@H]3C(=O)N(C)C(=O)[C@@H]3[C@](Cc3ccccc3)(C1=O)N2C(=O)c1ccc(F)cc1
 : 2%	i
> Cc1ccc(C(=O)Nc2cccc(-c3cn4ccccc4n3)c2)cc1
 : -11%	-10%
> CC(=O)Nc1ccc(N(C(=O)Cn2nnc3ccccc32)C(C(=O)NCc2ccccc2)c2ccc(C)cc2)cc1 (stereo not given)
 : -5%	-5%
> CC(C)CCN1CCN(Cc2cccn2-c2ccccn2)CC1CCO (stereo not given)
 : 10%	i
> C=CCN1C(=O)/C(=C\C(C)=C\c2ccccc2)SC1=S
 : -21%	-27%
> COc1cc(NC(=O)COc2cccc(C)c2C)ccc1NC(=O)c1ccco1
 : -4%	9%
> COc1cccc(N2CCN(c3ncnc4onc(-c5ccc(F)cc5)c34)CC2)c1
 : 3%	1%
> COCCOC(=O)C1=C(C)NC(=O)NC1c1ccc(-c2ccc(F)cc2)o1 (stereo not given)
 : 5%	i
> COc1ccccc1S(=O)(=O)N1CCC(C(=O)O)(c2ccccc2)CC1
 : -10%	-20%
> CC(=O)c1ccc(S(=O)(=O)Oc2ccc(-c3ccc(C(=O)O)cc3)cc2)cc1
 : 4%	-8%
> COC(=O)CCN(C(C)=O)c1ccc(N)cc1
 : -7%	i

Remaining list, next part.
SMILES | VACV Venus inh | VACV mCherry inh
CCOC(=O)c1ccc(NC(=S)N2CCN(CCN=CC3=C(O)CC(C)(C)CC3=O)CC2)cc1 | -8% | i
CN(C)C1(CNC(=S)Nc2ccccc2C(F)(F)F)CCCCC1 | -12% | i
FC(F)Oc1ccc(-n2cc(-c3ccccc3)[n+]3c2CCCCC3)cc1 | -13% | -15%
CN(C(=O)c1ccc2c(Cl)c3c(nc2c1)CCC3)c1ccccc1F | -9% | -19%
COc1ccc(OCC(=O)N2CCCC(Nc3ccc(C)c(C)c3)C2)cc1 (stereo not given) | -15% | u
Cc1ccc(N(CC(=O)NCc2ccccn2)S(=O)(=O)c2ccccc2)cc1C | -18% | -1%
N#Cc1c2c(c(-c3ccccc3Cl)[nH]c1=S)CCCC2 | 2% | 5%
Cc1ccc(C(=O)NCC(=O)OCN2C(=O)c3ccccc3C2=O)cc1C | -3% | -13%
Cc1ccc(CC(=O)Nc2ccc(S(=O)(=O)N3CCOCC3)cc2)cc1 | -9% | i
Oc1c(C(c2cccs2)N2CCOCC2)sc2ncnn12 (stereo not given) | -7% | i
C[C@]12CCC3C(CC[C@H]4C[C@@H](O)CC[C@]34C)C1CC[C@@H]2O (stereo not given in full) | -8% | -7%
CCOC(=O)c1cc2c(=O)n3ccccc3nc2n(CC2CCCO2)c1=NC(=O)c1ccccc1C (stereo not given) | -3% | -11%
O=C(COc1cc2oc(=O)c3c(c2cc1Cl)CCC3)Nc1ccc(CN2CCOCC2)cc1 | -19% | -10%
COc1cccc(NC(=O)CSc2nnc(-c3cccs3)n2C)c1 | -11% | x
CC(C)CCn1c(=O)c2sccc2n2c(CCCC(=O)Nc3ccc(C(C)C)cc3)nnc12 | -12% | -13%
CC(Cl)C(=O)Nc1ncc(C(F)(F)F)cc1Cl (stereo not given) | -11% | i
CCOc1ccc(NC(=O)Cn2cc(S(=O)(=O)NC)c(S(=O)(=O)NC)c2)cc1 | -9% | -12%
O=c1[nH]cc(N(CCO)CCO)c(=O)[nH]1 | -14% | -2%
COc1ccccc1NS(=O)(=O)c1cccc(C(=O)NNC(=O)c2ccc(Cl)nc2)c1 | -6% | i
CCOC(=O)CC(NC(=O)c1cccs1)c1ccc(C)cc1 (stereo not given) | -5% | -8%
COc1ccc(/C=C/c2nc3ccccc3n2C)cc1 | u | u
O=[N+]([O-])/C=C/c1cc2ccccc2[nH]1 | -26% | -17%
COc1ccc(-c2nc(SCC(=O)NC3CCCC3)c(-c3ccc(OC)cc3)[nH]2)cc1 | u | -8%&-28%
CCOC(=O)N1CCc2c(sc3c2c(=O)n(Cc2ccccc2)c(=O)n3Cc2c(F)cccc2Cl)C1 | -15% | -21%
COc1ccc(NC(=O)C(CC(C)C)NC(=O)C2CCC(C)CC2)cc1 (stereo not given) | -7% | 3%
CCN1CCN(C(=O)CN(Cc2ccccc2)S(C)(=O)=O)CC1 | 2% | -6%
CCC(C(=O)O)N1C(=O)C2CCCCC2C1=O (stereo not given) | -4% | -6%
CCOc1ccc(N(C(C)C(=O)NCCSc2ccc(C)cc2)S(C)(=O)=O)cc1 (stereo not given) | -19% | -14%
O=C(c1ccc(Cl)s1)N1CCN(S(=O)(=O)c2ccc(Cl)cc2)CC1 | -10% | -15%
Cc1sc2ncnc(N3CCC(C(=O)Nc4nnc(SCc5ccccc5F)s4)CC3)c2c1C | -8% | i
Cc1cc2ccccn2c1C(C[N+](=O)[O-])c1ccc(N(C)C)cc1 (stereo not given) | 11% | -19%
COc1ccc(C(C(=O)NC(C)(C)C)n2c(-c3ccc(C(F)(F)F)cc3)nc3ccccc32)cc1 (stereo not given) | -1% | -15%
Cc1cc(NCCCn2ccnc2)n2nc(-c3ccc(Cl)cc3)cc2n1 | -6% | -21%
O=C(Nc1ccc(N2CCCC2)cc1)c1cccc(-c2cc3ccccc3oc2=O)c1 | -4% | i
Cc1ccc2c(c1)C(c1ccccc1)N(C(=O)COc1ccc(Cl)cc1Cl)CC(=O)N2 (stereo not given) | -28% | -25%
Cc1nc([N+](=O)[O-])c(SCC(O)CCl)n1Cc1ccc(Cl)cc1 (stereo not given) | 0% | 10%
COc1ccccc1NC(=S)N(CCCN(C)C)Cc1cc2cc3c(cc2[nH]c1=O)OCO3 | -3% | -3%
CCCN(CCC)CC(O)CN(c1cc([N+](=O)[O-])ccc1OC)S(=O)(=O)c1ccccc1 (stereo not given) | -8% | -13%
CC(=O)Nc1ccc(S(=O)(=O)NCCS(=O)(=O)N2CCN(c3ccccc3)CC2)cc1 | -4%[7.34 µM] | -17%[7.34 µM]
COc1cc(CNCCCN2CCOCC2)ccc1OCC(=O)NC(C)(C)C | -20% | -3%
COc1ccc(S(=O)(=O)N2CCCCC2)cc1C(=O)Nc1cccc(C(F)(F)F)c1 | 0% | i
COc1ccc(N2CCN(C(=O)Cc3ccc(OC)c(OC)c3)CC2)cc1 | -7% | i
O=C(Cc1coc(-c2ccc(F)cc2)n1)NC1CCCCC1 | -18% | x
CC(=O)NC/C(C)=N\Nc1ccc([N+](=O)[O-])cc1 | -3% | -23%
CCC(C(=O)NCCc1ccc(S(N)(=O)=O)cc1)c1ccccc1 (stereo not given) | -5% | i
COc1ccc(-n2ncc3c(N4CCN(c5cc(C)ccc5C)CC4)ncnc32)cc1 | -24% | -2%
Nn1c(Cc2ccccc2)nnc1Cc1ccccc1 | -4% | i
Cc1cccc2sc(N(CCN(C)C)C(=O)/C=C/c3cccs3)nc12 | u | -26%
Cc1cc(C)c(CN2CCN(C(=O)Cn3ccc(N)nc3=O)CC2)c(C)c1 | -18% | i
COc1ccccc1NC(=S)NNC(=S)Nc1ccc(OC(F)F)cc1 | u | -27%
O=S(=O)(Nc1ccc2cn[nH]c2c1)c1cc(Br)ccc1Br | -14% | i
O=c1cc(-c2ccccc2)nc2cc(-c3ccco3)[nH]n12 | -4% | i
Cc1sc2ncn(CC(=O)NCC3COc4ccccc4O3)c(=O)c2c1S(=O)(=O)N1CCOCC1 (stereo not given) | -14% | -18%
O=C(CNC(=O)c1cn2ccccc2n1)Nc1ccc(F)c(F)c1 | 0% | -15%
Cc1ccc(C(=O)C2CCN(S(=O)(=O)c3c(C)noc3C)CC2)cc1 | -1% | -12%
Cc1nn2c(C)c(C(=O)NC(C)c3ccccc3)cnc2c1-c1ccc(F)cc1 (stereo not given) | -9% | -13%
CC(C)n1cc(C(=O)c2ccccc2O)cc(C#N)c1=O | -4% | -4%
COC(=O)[C@@H]1C[C@H]1[C@@H](NC(=O)c1ccccc1)c1ccccc1 | -7% | -22%
Cc1cc(C)c(S(=O)(=O)Nc2cc(-c3cn4ccccc4n3)ccc2C)cc1C | -16% | -24%
CC(C)CC(=O)Nc1ccccc1N1CCOCC1 | -10% | i
Next structures.
SMILES | VACV Venus inh | VACV mCherry inh
O=C(COC(=O)Cc1ccccc1[N+](=O)[O-])NCc1ccc(F)cc1 | -13% | i
O=C(O)c1cccc(NC(=O)c2cccc(S(=O)(=O)Nc3cccc(C(=O)O)c3)c2)c1 | -3% | -7%
C=CCNC(=O)CN(Cc1ccccc1)S(=O)(=O)c1ccccc1 | -7% | i
CCC(c1nnnn1Cc1ccc2c(c1)OCO2)N1CCN(c2ccccc2)CC1 (stereo not given) | 0% | -6%
O=C(NC(c1ccc(Cl)cc1)c1cnccn1)C1CCN(Cc2ccccc2)CC1 (stereo not given) | -8% | 2%
CC(=O)c1ccccc1N(C(=O)c1ccco1)C(C(=O)NC1CCCC1)c1ccc(N2CCOCC2)cc1 (stereo not given) | -6% | -2%
